Bioassay records: PubChem BioAssay, National Center for Advancing Translational Sciences (NCATS)
CtBP-E1A inh = blocks the CtBP interaction with E1A | AlphaScreen GST-E1A/His-CtBP binding, 1536-well; stronger effect = lower value; control for the full effect not named in the record | activity change, % (no concentration beside the values) | AID 651724 | 0.49% of 340,000 active; in the data active means activity change below about -65%; inconclusive means about -30% to -65%; inactive means above about -30%; further: on the % scale 0 is the no-effect control and ±100 the full control effect; compound concentration not given in the record
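In 5 uL wells, 23 nL compound meets equimolar GST-E1A and His-CtBP (5X stock 125 nM each) for 2 h, 37 °C. Beads (5X, 50 ug/mL) then 1 h, 37 °C, dark.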
gsp ag = activates gsp, the McCune-Albright syndrome mutation | gsp mutant cells, cAMP HTRF, 30 min; control for the full effect not named in the record | Potency, µM (series often up to 76.9 µM), without a hit: at the highest dose activation (cAMP increase), hits mostly activators | 0.13% of 340,000 active; active = well fitted activation curve with a large enough effect; inconclusive = small, poorly fitted or top-dose-only effect, or another doubt; inactive = no such curve, though single readings can be large or run the other way; cell line not stated here;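 further: phosphodiesterase inhibitor Ro 20-1724 added with compounds to block cAMP breakdown; potency means the concentration at half of the fitted maximal effect; nearly all actives have a fitted effect of over 60% in size; about a fifth of the inactives were tested at one dose only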
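Cells stably selected in G418 were plated at 2000/well, grown 16-24 hr, then given compounds in DMSO with the PDE inhibitor […] (300 uM solution added) for 30 min at 37C; cAMP was read by HTRF.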
ClpP mod = qHTS Assay for Activators of ClpP | ATP-dependent Clp protease proteolytic subunit (Bacillus subtilis (strain 168)), P80244 | purified B. subtilis ClpP, FRET peptide cleavage, 20 min | Potency, µM (highest dose often 57.5 µM), inactives show at the top dose activity change, negative = active | 1.9% of 340,000 active | AID 651965, 2013; active = well fitted falling curve with a large enough effect; inconclusive = small, poorly fitted or top-dose-only effect; inactive = no such curve, though single readings can be large or run the other way; further: potency means the concentration at half of the fitted maximal effect; the source files actives as falling curves though it sought activators and does not explain the sign; nearly all actives have a fitted effect of over 65% in size; many hits overshoot -100%
Target sequence (P80244 whole entry, looked up): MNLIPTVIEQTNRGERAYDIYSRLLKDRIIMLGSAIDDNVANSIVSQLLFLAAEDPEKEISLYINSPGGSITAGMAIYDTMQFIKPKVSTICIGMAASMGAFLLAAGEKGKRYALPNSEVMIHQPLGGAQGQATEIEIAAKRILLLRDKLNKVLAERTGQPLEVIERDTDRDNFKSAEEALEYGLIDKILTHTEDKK
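Buffer: 100 mM Tris/HCl pH8, 100 mM KCl, 0.05% low protease BSA, 2.5% glycerol, 0.01% Tween-20. ClpP 10 microg/mL final; 20 min RT; delta FRET normalized to ADEP and DMSO controls.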
Sfp inh = blocks B. subtilis Sfp PPTase activity; Q9F4F7; Biochemical Sfp PPTase activity, qHTS; Potency, µM, inactives show max response, negative = inhibition, hits mostly inhibitors; 3.5% of 310,000 active; active means well fitted inhibition curve with a large enough effect; inconclusive means small, poorly fitted or top-dose-only effect, or another doubt; inactive means no such curve, though single readings can be large or run the other way;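 further: the enzyme is Sfp with the accession as filed and its product quenches rhodamine fluorescence; potency means the concentration at half of the fitted maximal effect; 0% = enzyme reaction without inhibitor and -100% = no enzyme wells; top concentration of the series not given in the record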
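Buffer: 50 mM Hepes-Na pH 7.6, 10 mM MgCl2, 0.01% Nonidet P-40, 0.01% BSA. Enzyme 15 nM, pre-exposed to compound 15 min; substrates then added and fluorescence change tracked over 30 min.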
gsp antag = antagonists of gsp mutant (McCune-Albright syndrome) | gsp-mutant cells, cAMP HTRF, 30 min; control for the full effect not named in the record | 0.4% of 340,000 active | Potency, µM (top dose mostly 76.9 µM), without a hit: top-dose activity change, negative = inhibition, usual class: inhibitors; active = falling curve of any shape with a large fitted effect; inconclusive = falling curve, mostly with a smaller effect; inactive = flat or rising curve; cell line not stated here;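 further: intracellular cAMP measured with PDE inhibitor Ro 20-1724 present during compound exposure; potency means the concentration at half of the fitted maximal effect; on the % scale 0 is the no-effect control and ±100 the full control effect; nearly all actives have a fitted effect of over 65% in size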
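G418-selected cells were plated in DMEM/10% FBS for 16-24 h at 37C, then treated with compounds plus the PDE inhibitor […] (300 uM solution added) for 30 min at 37C. Intracellular cAMP was measured by HTRF after 30 min lysis at room temperature.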
Menin-MLL FL inh = displaces fluorescein MLL peptide from human menin. Fluorescence polarization, fluorescein-MLL peptide displacement from menin. FP activity change, % at 61.4 µM. 290,000 tested, under 10 active. AID 1766; inconclusive = falling polarisation curve, or a change in total fluorescence; inactive = total fluorescence flat and polarisation flat or rising; no compound was filed as active; the % refers to the polarisation; negative = inhibition;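 further: % of control where 0% means no effect; inhibitors lower the polarisation; unlabelled MLL peptide was the positive control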
TRPV1 PAM = potentiators of human vanilloid receptor 1 (TRPV1). Q8NER1. TRPV1-expressing cells, Fluo-8 calcium influx, capsaicin EC20 potentiation; host cell line not named in the record; control for the full effect not named in the record. potentiation, % at 8.33 µM. 0.02% of 320,000 active; active means potentiation above 80%; inconclusive means 30% to 80%; inactive means below 30%; further: 0% is about no effect
Target sequence (Q8NER1 whole entry, looked up): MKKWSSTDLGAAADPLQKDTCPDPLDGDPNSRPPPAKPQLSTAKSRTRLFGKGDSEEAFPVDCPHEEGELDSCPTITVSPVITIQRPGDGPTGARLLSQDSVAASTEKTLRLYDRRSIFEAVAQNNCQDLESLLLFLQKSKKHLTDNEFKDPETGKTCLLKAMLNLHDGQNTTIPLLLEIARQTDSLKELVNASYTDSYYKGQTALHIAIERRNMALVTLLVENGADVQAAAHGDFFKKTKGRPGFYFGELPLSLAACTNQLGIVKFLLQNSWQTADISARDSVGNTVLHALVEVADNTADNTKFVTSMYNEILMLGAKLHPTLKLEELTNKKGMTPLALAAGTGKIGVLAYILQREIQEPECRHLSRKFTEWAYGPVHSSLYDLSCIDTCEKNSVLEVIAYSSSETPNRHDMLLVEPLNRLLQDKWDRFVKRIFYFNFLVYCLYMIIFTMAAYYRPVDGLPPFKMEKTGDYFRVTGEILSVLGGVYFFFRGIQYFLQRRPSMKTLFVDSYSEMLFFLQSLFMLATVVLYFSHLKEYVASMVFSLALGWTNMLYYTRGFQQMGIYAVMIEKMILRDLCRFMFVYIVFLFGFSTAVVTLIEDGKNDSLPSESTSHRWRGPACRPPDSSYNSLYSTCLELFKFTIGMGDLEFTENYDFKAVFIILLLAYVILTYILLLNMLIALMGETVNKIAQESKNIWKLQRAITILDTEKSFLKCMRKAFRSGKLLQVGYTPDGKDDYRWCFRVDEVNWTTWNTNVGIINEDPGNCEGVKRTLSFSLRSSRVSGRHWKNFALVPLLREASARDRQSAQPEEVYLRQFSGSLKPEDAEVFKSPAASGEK
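Cells expressing TRPV1 were dye-loaded with Fluo-8 and read kinetically: 10 s baseline, 3 min after compound (agonist portion), then 2 min after EC20 capsaicin (allosteric enhancer portion). Calcium-bound dye fluorescence at 480/520 nm.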
Starred values were filed as active, the others as inactive; ? = inconclusive; . = no result given; [ ] = another dose, or the depositor's remark.

SMILES | CtBP-E1A inh | gsp ag | ClpP mod | Sfp inh | gsp antag | Menin-MLL FL inh | TRPV1 PAM
Cc1cc2cc(CN(Cc3cccs3)C(=S)NCc3ccco3)c(=O)[nH]c2cc1C | -10.1 | -4.9% | -12.1% | 1.3% | -3.2% | 3.2 | -0.9
Cc1ccc(OCC(=O)Nc2nc(C)c(Cl)cc2Cl)c([N+](=O)[O-])n1 | . | 2.2% | 0.5% | . | 9.5% | . | 6.5
O=C(O)Cc1ccc2sc(-c3ccccc3)nc2c1 | 6.0 | ? | ? | 12.8% | -1.8% | 1.9 | 26.2
COc1ccc(Cl)cc1NC(=O)c1oc(C)nc1C | -0.6 | 4.3% | -1.1% | -9.1% | -5.6% | 4.8 | -1.5
COc1ccc2oc(C(=O)N3CCN(C/C=C/c4ccccc4)CC3)c(C)c2c1 | -11.5 | -2.3% | -13.5% | . | -17.4% | . | 0.6
COc1ccc(-c2cc3nc(-c4ccccc4)cc(N4CCN(C(=O)c5ccoc5)CC4)n3n2)cc1 | 10.9 | 27.7% | 4.4% | . | . | . | .
CN(CC(=O)N1CCCCC1)S(=O)(=O)c1ccc(Cl)cc1 | 6.7 | 17.5% | . | -4.5% | -0.5% | 2.4 | -15.4
CCOC(=O)C1CCCN(CC(O)COc2ccccc2C(C)=O)C1 (stereo not drawn) | 5.4 | 26.5% | -5.2% | 8.2% | 5.3% | 0.6 | 6.7
C[C@H](O)CNC(=O)c1[nH]cnc1C(=O)Nc1ccc(CNC(=O)OC(C)(C)C)cc1 | -3.0 | 25.7% | 0.0% | . | . | . | .
Cn1cc(Cl)c(C(=O)NNC(=S)NCc2ccco2)n1 | . | 13.5% | -0.6% | 56.2µM* | 11.6% | 0.6 | 7.5
Cn1cc(-c2ccno2)c(C(=O)O)n1 | -0.9 | 20.3%[15.4 µM] | . | 6.2% | 11.4% | -1.9 | -15.3
C(=N\n1cnnc1)/c1cn(-c2cccs2)nc1-c1ccccc1 | 11.2 | -34.4%[inhibitor] | -19.5% | 8.4% | 4.6% | 3.1 | -11.3
Cc1[nH]n(-c2ccccc2)c(=O)c1C(C[N+](=O)[O-])c1ccc(Br)cc1 (stereo not drawn) | -9.0 | -26.7% | -1.0% | -23.8% | -2.0%[15.4 µM] | 2.9 | 3.8
CCC(Sc1ccc2nnc(-c3ccc(F)cc3)n2n1)C(=O)OC (stereo not drawn) | 12.0 | 17.9% | ? | 6.7% | -4.9% | -0.7 | -15.0
O=C(Nc1ccc(F)cc1)Nc1cccnc1Cl | 8.3 | -53.2%[inhibitor][15.4 µM] | . | -0.6% | 2.9% | -0.8 | -1.2
Cc1cccc(NC(=O)NC2CCCc3ccccc32)c1 (stereo not drawn) | 4.5 | 20.4% | -1.4% | 15.5% | -1.1% | 1.9 | -15.0
Cc1cc(OCC(=O)Nc2ccc(Br)cc2)cc2c1C(=O)CC(C)(C)O2 | 0.8 | -18.1% | . | 20.1% | -27.9% | 2.2 | .
COCC(=O)OC/C(O)=C(\C#N)c1nc2ccccc2[nH]1 | -10.1 | 7.5%[15.4 µM] | . | 12.0% | -1.3% | ? | 3.1
O=C(c1cccc(S(=O)(=O)N2CCN(c3ccccc3)CC2)c1)N1CCN(c2ccccc2O)CC1 | -3.3 | 2.1%[15.4 µM] | . | . | -12.6% | . | -1.7
COC(=O)c1ccc(C)cc1C1CN=NC12Cc1cc(C)ccc1C2=O (stereo not drawn) | -8.1 | 9.2% | -4.0% | . | 4.7% | . | .
Cc1ccc(C(=O)C2CCN(CC(=O)NC3CCCCC3)CC2)cc1 | -1.7 | 0.5% | -1.9% | 3.6% | -8.9% | 0.2 | 2.5
O=C(O)c1cccc(S(=O)(=O)N(Cc2ccccc2)c2ccccc2Cl)c1 | 8.6 | -1.2% | -7.0% | 1.6% | -13.8% | 5.4 | -17.4
COc1ccccc1N1CCN(C(=O)CSc2nc(C)c(C)c(=O)[nH]2)CC1 | 4.6 | 20.7% | 0.0% | -10.0% | -8.7% | 3.5 | 7.8
OCCN(Cc1ccccc1)Cc1cccc(C(F)(F)F)c1 | 15.4 | 1.3% | -0.2% | -8.7% | -3.5% | -0.6 | 4.8
CCN(Cc1ccccc1)C(=O)c1c(-c2ccccc2Cl)noc1C | 2.9 | -4.4% | . | 8.4% | -10.7% | 2.9 | -12.0
Cc1ccc(NC(=O)c2cc([N+](=O)[O-])ccc2Cl)c(O)c1 | 7.9 | -31.5%[15.4 µM] | . | 22.6% | . | 2.5 | -12.7
Cc1sc2ncnc(SCc3ccc(C(=O)O)cc3)c2c1C | . | -49.2% | -0.4% | -5.4% | -1.6% | 3.7 | 4.1
CCCCP(=O)(CCCC)Cc1ccccc1O | 10.2 | -1.7% | -0.1% | 14.7% | 4.9% | 3.8 | -0.6
Cc1ccc(C)c(NC(=S)Nc2cccc3cnccc23)c1 | -5.9 | 19.7% | . | 31.6µM* | 1.7% | 0.0 | 10.4
CC[C@]12c3[nH]c4ccc(Cl)cc4c3CCN1C(=O)[C@@H](CC(=O)NCCC1=CCCCC1)C[C@@H]2C(=O)N1CCN(C(=O)c2ccco2)CC1 | -0.9 | . | 1.4% | . | -18.3% | . | .
CC1CN=C(N(C(=O)Nc2ccccc2)c2ccc(F)cc2)S1 (stereo not drawn) | 4.8 | -6.9% | 0.6% | 12.7% | 3.1% | -0.5 | -5.0
COc1ccc(CN(C)C(=O)c2ccc(Cl)c(S(=O)(=O)NCc3cccnc3)c2)cc1F | 1.2 | -51.8%[inhibitor] | 0.0% | . | 2.1% | . | -21.4
Cc1sc2c(c1C)CN(C1CC(C)(C)NC(C)(C)C1)CN2C(=O)c1ccco1 | . | . | . | -1.2% | . | ? | 3.7
CC(=O)c1ccc(OCCCC(=O)OCc2nnc(-c3ccc(Cl)cc3)o2)cc1 | 8.0 | -22.7% | 2.0% | 9.5% | 6.8% | -1.6 | -5.1
O=C(N/N=C/c1ccccc1Cl)c1ccc(F)cc1 | 3.1 | 6.7% | 0.7% | -14.1% | -15.5% | -0.3 | -10.1
Cc1cc(C)nc(SCCn2c(N3CC(C)OC(C)C3)nc3c2c(=O)n(C)c(=O)n3C)n1 (stereo not drawn) | -0.2 | 1.5%[15.4 µM] | . | 24.7% | -4.4% | -1.7 | 4.6
Cc1ccc(C)c(S(=O)(=O)N2CCC(c3nc4c(nnn4Cc4ccc5c(c4)OCCO5)c(=O)[nH]3)CC2)c1 | . | -46.7%[inhibitor] | -0.6% | 2.2% | -18.2% | . | 12.6
CCNC(=S)N/N=C/c1cccc(OCc2c(F)cccc2Cl)c1 | -18.1 | 3.9% | -2.9% | 5.3% | 9.3% | -1.0 | -7.1
C=CC[n+]1c(C)csc1Nc1ccc(C)cc1 | -21.4 | -4.2%[15.4 µM] | . | 26.5% | 5.4% | 4.2 | 3.5
CCOC(=O)C1=C(C)NC(C)=C(C(=O)OCC)C1C(=O)OCC(=O)N1CCCCC1C (stereo not drawn) | 3.5 | -41.9%[inhibitor] | -18.4% | . | 5.2% | . | -11.1
Cc1[nH]c2ccccc2c1CCN(Cc1cccs1)C(=S)Nc1ccccc1 | -10.4 | -41.3%[inhibitor] | 1.5% | 42.2%[activator] | -13.2% | -1.2 | 17.4
CCOc1ccc(S(=O)(=O)N2CCOCC2)cc1NC(=O)c1ccc(N2CCCC2=O)cc1 | 8.2 | -35.0%[inhibitor] | -2.3% | . | 7.1% | . | -2.1
CCc1c(-c2ccccc2)nc2nc(C)c(C)nn12 | -23.3 | 22.9% | -29.3% | 4.6% | -0.9% | -12.8 | 7.0
O=C(C1CCN(S(=O)(=O)c2ccc(F)cc2)CC1)N1CCCC(C(F)(F)F)C1 (stereo not drawn) | 4.7 | 9.0% | 0.8% | . | -2.2% | . | 16.3
FC(F)(F)c1cccc(Cn2c3[n+](c4ccc(C(F)(F)F)cc42)CCCCC3)c1 | 5.6 | 12.6%[15.4 µM] | . | 2.0% | 6.6% | -1.9 | -7.0
CCC(C)C(NC(=O)C1CCC(C)CC1)C(=O)NC(CCSC)C(=O)OC (stereo not drawn) | 4.5 | -1.9% | -2.0% | 15.1% | 3.9% | 1.2 | -3.5
Cc1cccc(Cc2cnc(NC(=O)CN3C(=O)/C(=C/c4ccccc4)SC3=S)s2)c1 | 4.0 | 10.1% | -0.7% | -14.2% | 6.2% | 7.1 | 3.5
N/C(=N\OS(=O)(=O)c1ccc(Cl)cc1)c1ccccn1 | -1.4 | -3.3%[15.4 µM] | . | -21.0% | . | 0.2 | 20.9
CC[C@]12C(=O)N(C)C[C@H]([C@@H]3C(=O)N(Cc4ccccc4)C(=O)[C@@H]31)N2C(=O)c1ccc(Br)cc1 | 0.0 | ? | 0.2% | . | 6.2% | . | .
Cc1nnsc1C(=O)NNc1ccc(C(C)C)cc1 | -1.1 | 2.7%[15.4 µM] | . | -1.3% | -1.5% | -4.0 | 0.2
CC(C)CCNC(=S)Nc1ccc([N+](=O)[O-])cc1 | 5.5 | -2.8% | -9.2% | -28.2% | -8.8% | 5.9 | -2.0
COc1cc(OC)cc(C(=O)NC(C(=O)N2CCC2)C(C)C)c1 (stereo not drawn) | -9.4 | 0.0%[15.4 µM] | -2.7% | . | 5.8% | . | .
CCN(C(=O)CSc1nc2cc(S(=O)(=O)N(CC)CC)ccc2o1)C1CCS(=O)(=O)C1 (stereo not drawn) | 2.1 | ? | 0.4% | 17.8µM* | 1.3% | 0.4 | -0.1
O=C(Nc1cnccn1)c1ccc(F)cc1Cl | . | 1.9% | -4.3% | 18.0% | -4.0% | -1.4 | -1.2
C#CC[N+]1(CC#Cc2ccccc2)CCOCC1 | -2.4 | -8.5% | -0.8% | 4.3% | 5.9% | 2.8 | -6.5
Cc1cc2nc3n(c2cc1C)CCCN3 | . | 20.1% | -2.5% | 19.8% | 3.4% | 3.7 | 21.7
Cc1ccc(C(=O)NCCCNC(=O)c2ccccc2C)cn1 | 0.0 | 4.2%[15.4 µM] | . | 13.8% | 3.6% | 11.3 | -2.4
O=C(NC1CCCCC1)/C(=N\O)c1ccccn1 | 4.4 | -6.7% | 0.8% | -8.4% | -0.1% | 0.5 | 3.0

Outcome played no part in choosing rows; 5.3% or so of the library scored in one or more.
